# Source: PubChem BioAssay
# Menin-MLL FL inh: displaces fluorescein MLL peptide from human menin; Fluorescence polarization, fluorescein-MLL peptide displacement from menin; FP activity change, % at 61.4 µM; 290,000 tested, under 10 active; inconclusive = falling polarisation curve, or a change in total fluorescence; inactive = total fluorescence flat and polarisation flat or rising; no compound was filed as active; the % refers to the polarisation; negative = inhibition;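 further: % of control where 0% means no effect; inhibitors lower the polarisation; unlabelled MLL peptide was the positive control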
# gsp ag: activates gsp, the McCune-Albright syndrome mutation; gsp mutant cells, cAMP HTRF, 30 min; control for the full effect not named in the record; Potency, µM (highest dose often 76.9 µM), without a hit: top-dose activation (cAMP increase), usual class: activators; 0.13% of 340,000 active; AID 624287; active = well fitted activation curve with a large enough effect; inconclusive = small, poorly fitted or top-dose-only effect, or another doubt; inactive = no such curve, though single readings can be large or run the other way; cell line not stated here;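 further: phosphodiesterase inhibitor Ro 20-1724 added with compounds to block cAMP breakdown; potency means the concentration at half of the fitted maximal effect; nearly all actives have a fitted effect of over 60% in size; about a fifth of the inactives were tested at one dose only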
#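 Cells in DMEM/10% FBS with G418 were pretreated with compounds in DMSO plus […] (300 uM stock) for 30 min at 37C. cAMP was measured by HTRF (cAMP-d2 plus anti-cAMP antibody-K) after 30 min at room temperature.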
# ClpP mod: qHTS Assay for Activators of ClpP. purified B. subtilis ClpP, FRET peptide cleavage, 20 min. ATP-dependent Clp protease proteolytic subunit (Bacillus subtilis (strain 168)), P80244. Potency, µM (top dose mostly 57.5 µM), inactives show at the highest dose activity change, negative = active. 1.9% of 340,000 active; active = well fitted falling curve with a large enough effect; inconclusive = small, poorly fitted or top-dose-only effect; inactive = no such curve, though single readings can be large or run the other way; further: potency means the concentration at half of the fitted maximal effect; the source files actives as falling curves though it sought activators and does not explain the sign; nearly all actives have a fitted effect of over 65% in size; many hits overshoot -100%
# Target sequence (P80244 whole entry, looked up): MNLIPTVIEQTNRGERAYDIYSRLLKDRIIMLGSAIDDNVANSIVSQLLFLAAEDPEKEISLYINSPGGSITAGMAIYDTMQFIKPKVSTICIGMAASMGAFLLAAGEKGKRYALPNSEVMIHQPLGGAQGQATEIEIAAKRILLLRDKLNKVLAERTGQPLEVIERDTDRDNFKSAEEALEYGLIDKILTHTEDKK
#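 FRET quenching reversal measured ClpP activation: 10 microg/mL B. subtilis ClpP at pH 8 with the FRET-FV decapeptide, read at 430 nm after 320 nm excitation. The 20-min minus 0-min signal was scaled between DMSO/no-enzyme wells and ADEP (5.8 microM final).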
# Sfp PPTase inh: Sfp phosphopantetheinyl transferase inhibition; Biochemical Sfp PPTase activity, qHTS; Q9F4F7; 3.5% of 310,000 active; Potency, µM, for the others: max response, negative = inhibition, usual class: inhibitors; active means well fitted inhibition curve with a large enough effect; inconclusive means small, poorly fitted or top-dose-only effect, or another doubt; inactive means no such curve, though single readings can be large or run the other way;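 further: the enzyme is Sfp with the accession as filed and its product quenches rhodamine fluorescence; potency means the concentration at half of the fitted maximal effect; 0% = enzyme reaction without inhibitor and -100% = no enzyme wells; top concentration of the series not given in the record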
#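 Fluorescence-quenching assay with 15 nM Sfp, 5 uM rhodamine-CoA and 12.5 uM BHQ-2-labelled ybbR peptide in pH 7.6 Hepes/MgCl2 buffer. Enzyme was pre-incubated with compound for 15 min at room temperature. Rate was taken from the 30-min fluorescence change (525/598 nm).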
# D2 potentiator: potentiates the human D2 dopamine receptor allosterically; P14416; DiscoveRx D2 beta-arrestin cells, luminescence, 90 min; 100% = 57 uM dopamine signal; potentiation, % (test concentration not listed); 0.23% of 360,000 active; active = potentiation of 50% or more; inconclusive = 30% to 50%; inactive = 30% or less;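 further: compound concentration not given in the record; tested on top of an EC20 dose of dopamine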
# Target sequence (P14416 whole entry, looked up): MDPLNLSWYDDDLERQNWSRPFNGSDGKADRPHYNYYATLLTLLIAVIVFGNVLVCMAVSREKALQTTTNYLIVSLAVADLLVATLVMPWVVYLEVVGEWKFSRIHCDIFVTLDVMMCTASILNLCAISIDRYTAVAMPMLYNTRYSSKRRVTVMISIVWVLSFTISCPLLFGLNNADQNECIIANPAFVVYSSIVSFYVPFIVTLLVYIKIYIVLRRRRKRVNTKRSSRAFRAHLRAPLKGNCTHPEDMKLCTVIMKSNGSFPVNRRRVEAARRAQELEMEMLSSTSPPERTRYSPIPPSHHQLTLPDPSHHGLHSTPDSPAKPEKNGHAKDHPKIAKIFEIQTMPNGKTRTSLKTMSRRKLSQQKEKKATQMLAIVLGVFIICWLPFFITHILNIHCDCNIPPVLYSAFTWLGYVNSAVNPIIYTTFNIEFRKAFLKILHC
#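 D2 cells co-treated with compound plus 50 nM dopamine (EC20) for 90 min at 37 deg C to detect potentiation. Beta-arrestin recruitment was read as enzyme-fragment luminescence after 1 h at ambient temperature. Full response was set by 57 uM dopamine.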
# TRPV1 potentiator: potentiators of human vanilloid receptor 1 (TRPV1); Q8NER1; TRPV1-expressing cells, Fluo-8 calcium influx, capsaicin EC20 potentiation; host cell line not named in the record; control for the full effect not named in the record; potentiation, % at 8.33 µM; 0.02% of 320,000 active; active means potentiation above 80%; inconclusive means 30% to 80%; inactive means below 30%; further: 0% is about no effect
#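 Fluo-8 calcium influx in TRPV1-expressing cells, kinetic read (ex 480/em 520 nm). Compound added and read 3 min for agonist activity, followed by capsaicin at EC20 final and 2 min further read for enhancement.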
# gsp antag: antagonists of gsp mutant (McCune-Albright syndrome); 0.4% of 340,000 active; gsp-mutant cells, cAMP HTRF, 30 min; control for the full effect not named in the record; Potency, µM (doses to about 76.9 µM), inactives show top-dose activity change, negative = inhibition, most hits filed as inhibitors; active = falling curve of any shape with a large fitted effect; inconclusive = falling curve, mostly with a smaller effect; inactive = flat or rising curve; cell line not stated here;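 further: intracellular cAMP measured with PDE inhibitor Ro 20-1724 present during compound exposure; potency means the concentration at half of the fitted maximal effect; on the % scale 0 is the no-effect control and ±100 the full control effect; nearly all actives have a fitted effect of over 65% in size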
#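 G418-selected cells were plated in DMEM/10% FBS for 16-24 h at 37C, then treated with compounds plus the PDE inhibitor […] (300 uM solution added) for 30 min at 37C. Intracellular cAMP was measured by HTRF after 30 min lysis at room temperature.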
# Active calls of the source: *; ? = inconclusive; · = no result given; & = joins results of further samples; [ ] = dose if it differs, or a comment.
SMILES,Menin-MLL FL inh,gsp ag,ClpP mod,Sfp PPTase inh,D2 potentiator,TRPV1 potentiator,gsp antag
COc1ccc(C2OCC3(CO2)SC(=O)NC3=O)cc1 (stereo unspecified),-10,20%,-30%,6%,-12,11,-7%
COCCSc1ccccc1C(=O)Nc1ccc2c(c1)OCCO2,-2.6,1%,1.3%,-9%,-8,2,2%
Oc1c(C(c2cccs2)N2CCN(c3ccc(F)cc3)CC2)sc2ncnn12 (stereo unspecified),-0.1,-18%,-0.2%,14%,-5,7,-7%
CSc1ccc(CCNS(=O)(=O)c2c(C)[nH]c(C)c2C(=O)N2CCCCC2)cc1,1.5,-6%,1.2%,10%,-18,-2,0%
CSCCC(NC(=O)c1ccco1)C(=O)OCC(=O)N1c2ccccc2NC(=O)C1(C)C (stereo unspecified),·,?,0.7%,·,0,-6,1%
COc1ccc2[nH]c3c(c2c1)CCN1C(=O)C(CC(=O)NCCC2=CCCCC2)C[C@H](C(=O)N2CCCCC2)[C@@]31C (stereo partly specified),·,·,-11%,·,-10,·,-14%
O=C(NCc1ccco1)C1CCN(S(=O)(=O)Cc2ccccc2)CC1,3.4,0%,-1.6%,7%,-7,-17,2%
Cc1cc(NC(=O)c2cccc(Cl)c2)n[nH]1,·,26%,2.8%,·,-9,?,2%
O=C(COC(=O)C1=NN(c2ccccc2)C(=O)CC1)NCc1ccccc1Cl,·,-5%[15.4 µM],28µM*,·,13,-5,-2%
CC1CCCN(C(=O)c2ccc(COc3ccccc3Br)cc2)C1 (stereo unspecified),3.9,-21%,1.0%,?,-15,-10,-1%
N#Cc1ccc(Cl)cc1NC(=O)COC(=O)[C@H](CCC(N)=O)NC(=O)c1ccc(F)cc1,-2.1,-1%,2.4%,1%,-2,9,2%
COCCNc1nc(C)c(C(C)=O)s1,2.1,-3%[15.4 µM],·,16%,-22,1,2%
Nc1[nH]n2c(=O)c3c(nc2c1N=Nc1ccccc1)CCCC3,-0.3,27%,-2.7%,-1%,-15,-14,-21%
CCN(C(=O)COC(=O)/C=C/c1ccc(C)o1)c1c(N)n(Cc2ccccc2)c(=O)[nH]c1=O,·,-4%,-1.6%,·,8,1,12%
COc1ccccc1-n1c(SCC(N)=O)nc2sc3c(c2c1=O)CCC3,0.2,2%[15.4 µM],·,-1%,-5,?,4%
CCOc1ccc(N2C(=O)CC(Sc3ncccn3)C2=O)cc1 (stereo unspecified),1.9,8%,0.4%,3%,2,1,2%
CNc1c([N+](=O)[O-])cnn1-c1cccc(Cl)n1,-2.3,8%[15.4 µM],·,-8%,0,-1,0%
CC1(C)CNc2cc(N)ccc2S1,?,14%[15.4 µM],·,-9%,4,?,2%
O=S(=O)(c1ccc(Br)cc1)N1CCn2c(nc3ccccc32)C1,3.0,-36%[inhibitor],0.0%,9%,-6,8,11%
COc1ccc2c(OC)cc(-c3ccccc3)nc2c1,-1.4,16%,-4.8%,-6%,-4,6,?
COC(=O)CCC(=O)Nc1cccc([N+](=O)[O-])c1,0.2,18%,0.2%,28%,-10,-1,6%
CC(=O)OCc1c(C)cc(C)c(/C=C(/C#N)C(N)=O)c1C,8.1,1%[15.4 µM],0.8%,-4%,-2,3,5%
Cc1ccc(S(=O)(=O)Nc2ccc3c(c2)nc(CCN2CCOCC2)n3C)cc1,4.9,16%,1.0%,4%,-17,-4,-2%
CC(C)n1ncc2c(C(=O)NCCOc3ccccc3F)cc(C3CC3)nc21,·,-6%[15.4 µM],-1.0%,·,-23,·,-19%
CCCCn1nnc(NC(=O)c2ccc(-c3cccc([N+](=O)[O-])c3)o2)n1,1.1,·,·,-2%,·,10,·
Cc1cc(C)c(NC(=O)Cn2nnc(C(=O)NCc3cccs3)c2N)c(C)c1,9.4,-26%,0.0%&1.4%,-7%,-9,·,5%
Cc1ccc(S(=O)(=O)N2C[C@@H]3[C@H]4CC[C@H](C4)[C@@H]3[C@@H](C)[C@H]2c2ccn(Cc3ccccc3)c2)cc1,·,·,-2.0%,·,-3,·,-11%
Cn1nc(OC(=O)Nc2ccc(F)cc2)cc1C(F)(F)F,0.7,8%,0.8%,18%,1,3,-1%
O=C(c1ccc(CS(=O)Cc2ccc(Cl)cc2)o1)N1CCN(c2ccccc2)CC1 (stereo unspecified),-1.8,-10%,1.7%,5%,-10,-9,-13%
CS(=O)(=O)N(CC(=O)N1CCN(Cc2ccccc2)CC1)Cc1ccccc1,3.4,-32%[inhibitor],-0.4%,6%,-4,5,-12%
O=S(=O)(c1ccc2c(c1)CCCN2)N1CCCC1,·,-31%[inhibitor],-14%,·,-3,11,-1%
Cc1ccc(NC(=O)CN(C)CC(=O)Nc2cccc(F)c2)cc1[N+](=O)[O-],4.2,-16%[15.4 µM],0.5%,-1%,-5,-1,-24%
Cc1ccc(CS/C(Nc2ccccc2C)=C(\C#N)C(=O)NCc2ccco2)c(C)c1,2.5,-52%[inhibitor],-4.0%,11%,-1,1,-15%
O=C(NC1(C(=O)O)CCCC1)C(Cl)Cl,·,26%,·,·,-4,·,9%
COc1cccc(CN(C(=O)COc2ccc(Cl)cc2)C2CCS(=O)(=O)C2)c1 (stereo unspecified),-7.6,-11%,·,11%,5,8,-8%
COc1ccc(Cn2c(=O)[nH]c3cc(C(=O)NCCc4ccc(S(N)(=O)=O)cc4)ccc3c2=O)cc1,15,6%,·,-12%,3,10,8%
CCOC(=O)c1c(C)[nH]c(C(=O)NCC(c2ccco2)N2CCCCC2)c1C (stereo unspecified),·,4%,0.7%,·,-2,·,12%
COc1ccc(OCC(=O)NNC(=O)c2ccccn2)cc1,3.7,26%,-2.5%,19%,?,-1,9%
O=C(c1ccc(N2C(=O)C3CCCCC3C2=O)cc1)N1CCCCC1 (stereo unspecified),0.8,2%,0.3%,11%,-1,-5,13%
Cc1nnc(SCC(=O)NC23CC4CC(CC(C4)C2)C3)n(N)c1=O,-2.5,3%,1.1%,12%,-12,7,0%
COc1cc(S(=O)(=O)Nc2cccc(C)c2)ccc1NC(=O)c1cccnc1,7.0,-34%[inhibitor],-2.5%,1%,-8,-5,-12%
Cc1ccc(Cn2nc3c4cc(F)ccc4n(Cc4ccc(F)cc4)cc-3c2=O)cc1,8.5,?,-3.9%,18%,-7,7,-11%
Cc1nnc(-c2cnn(C)c2N)n1Cc1cccc(Cl)c1,1.1,-13%,-1.0%,12%,-16,0,12%
CSc1nnc(-c2cnccn2)n1CCCN1CCCC1=O,2.8,11%,-1.1%,11%,-7,0,3%
CCCn1c(=O)c(C(=O)NNC(=O)c2cccc([N+](=O)[O-])c2)c(O)c2ccccc21,·,-9%,-0.2%,15%,-7,3,?
COc1cc(OC)cc(C(=O)NCC(=O)OCc2csc(-c3ccccc3)n2)c1,-0.7,-29%,-1.9%,-8%,-15,26,-6%
CCCCOc1ccc(N(CC(=O)NC2CCCC2)C(=O)CCC(=O)Nc2ccccn2)cc1,1.5,-3%,1.0%,2%,-5,4,9%
Cc1c(Cl)cccc1NC(=S)N(CCCN1CCOCC1)Cc1cccs1,2.0,20%[15.4 µM],0.9%,-8%,-13,-14,-32%
CCOC(=O)c1cnc2c(Cl)c(Cl)ccc2c1NCCN1CCOCC1,0.7,?,-3.5%,1%,3,2,-3%
CC(=O)c1ccc(N2CCN(c3ccc(C(F)(F)F)cn3)CC2)cc1,5.3,-27%,-11%,15%,6,-4,5%
c1ccc(OCCOc2cccc3cccnc23)cc1,·,-25%,-4.7%,2%,-2,11,18%
COCCSc1nc(N)c2c3c(sc2n1)CN(C)CC3,0.8,?,·,8%,-6,?,1%
O/N=C/c1ccccc1Oc1ccc(Cl)cc1,3.8,0%,2.0%,-3%,-11,-2,2%
CN(C)C(=O)OCC1COc2ccccc2O1 (stereo unspecified),-20,-3%,·,12%,-3,-22,10%
CS(=O)(=O)c1cccc(-c2nnc(NC(=O)C3=COCCO3)o2)c1,·,4%[15.4 µM],·,·,-6,2,-1%
O=C1CSCN1c1cc(Cl)ccc1Cl,-2.3,6%[15.4 µM],·,-13%,-2,-5,1%
CNC(=S)N1N=C(c2ccc(C)cc2)CC1c1ccc(N(C)C)cc1 (stereo unspecified),-1.9,2%[15.4 µM],-1.6%,?,-14,13,-7%
CCC(=O)Nc1cccc(C(=O)OCC(=O)c2ccccc2Cl)c1,8.7,29%,-0.4%,12%,-3,15,12%
COc1ccc(CC(=O)Nc2cccc(C(=O)Nc3cccc(C)c3)c2)cc1,1.3,·,·,-1%,·,18,·
O=C(CN1CC(=O)Oc2ccccc21)OCC(=O)c1ccccc1,-0.8,-22%,0.5%,?,2,-2,-2%

# Next results follow:
SMILES,Menin-MLL FL inh,gsp ag,ClpP mod,Sfp PPTase inh,D2 potentiator,TRPV1 potentiator,gsp antag
CCOC(=O)N1CCC(NC(=O)C2=CCN(S(=O)(=O)c3ccc(OC)cc3)CC2)CC1,3.3,-27%,-3.3%,6%,-1,-5,6%
Nc1nnnn1CC(=O)N/N=C/c1ccccn1,4.5,8%[15.4 µM],·,35µM*,-1,·,12%
CCC1C(=O)NCCN1Cc1nc(-c2ccc(C)s2)oc1C (stereo unspecified),3.6,21%,·,4%,-6,-3,3%
COc1cc2c(cc1OC)C(C(=O)N(C)Cc1ccccc1)C(c1cccnc1)N(C)C2=O (stereo unspecified),-0.1,30%,·,6%,0,2,1%
O=C(NCCc1ccccc1)c1ccc(-n2cnnn2)cc1,-4.0,26%,-3.0%,4%,7,-13,4%
COc1ccc(C2CC(c3ccccc3)=NN2S(=O)(=O)c2ccccc2)c(OC)c1 (stereo unspecified),·,0%,0.1%,14%,2,-3,-7%
CCOC(=O)C1=CCN(Cc2ccccc2)CC1,0.1,-57%[inhibitor],·,?,13,4,10%
CCCC1S/C(=N/N=C/c2cccs2)NC1=O (stereo unspecified),-3.2,0%,-1.3%,-11%,-3,-1,5%
O=S(=O)(/C=C/c1ccccc1)N1CCN(c2cccc(Cl)c2)CC1,-0.2,3%,-4.8%,17%,7,5,5%
C=CCOc1cc(C)nc(-c2ccccc2O)n1,2.8,-16%,-1.0%,7%,7,3,-20%

# Compounds were not picked by outcome, and some 5.1% of all compounds hit somewhere here.
